Compound activity as filed in PubChem BioAssay.
TRPML1 inh: blocks the human TRPML1 channel. TRPML1-inducible cells, Ca2+ dye fluorescence, FDSS; hits give low values; inhibition of EC80 agonist-evoked calcium signal. activity change, negative = inhibition, % (test concentration not listed). 0.02% of 390,000 active; in the data active means activity change below about -50%; inconclusive means about -30% to -50%; inactive means above about -30%;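 also: stimulus is agonist 54-4 at its EC80 concentration; % is scaled to controls: 0 for no effect and ±100 for the full control effect; compound concentration not given in the record; the text of the record puts the active cut at -80%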
Target sequence (Q9GZU1 whole entry, looked up): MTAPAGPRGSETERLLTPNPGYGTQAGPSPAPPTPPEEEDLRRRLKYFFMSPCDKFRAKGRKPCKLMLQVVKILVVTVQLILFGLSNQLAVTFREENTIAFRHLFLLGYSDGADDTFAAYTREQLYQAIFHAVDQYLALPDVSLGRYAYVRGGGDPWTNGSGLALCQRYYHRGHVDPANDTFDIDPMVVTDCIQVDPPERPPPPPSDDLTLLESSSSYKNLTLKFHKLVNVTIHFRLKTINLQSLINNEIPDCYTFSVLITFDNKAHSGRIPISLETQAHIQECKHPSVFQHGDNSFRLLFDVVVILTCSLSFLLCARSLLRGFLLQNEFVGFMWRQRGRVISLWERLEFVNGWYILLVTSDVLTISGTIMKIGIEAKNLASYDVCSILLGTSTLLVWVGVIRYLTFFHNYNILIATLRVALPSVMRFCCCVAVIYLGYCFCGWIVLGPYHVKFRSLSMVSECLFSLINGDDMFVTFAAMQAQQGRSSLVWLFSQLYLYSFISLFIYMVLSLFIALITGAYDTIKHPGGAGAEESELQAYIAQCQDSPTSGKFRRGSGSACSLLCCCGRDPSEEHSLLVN
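Tet-induced TRPML1-DL cells loaded with Ca8 no-wash calcium dye were read kinetically on FDSS. Compound addition was followed by EC80 agonist 54-4 (4 uM final); inhibition was read over 110 s.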
ClpP mod: qHTS Assay for Activators of ClpP | ATP-dependent Clp protease proteolytic subunit (Bacillus subtilis (strain 168)), P80244 | purified B. subtilis ClpP, FRET peptide cleavage, 20 min | Potency, µM (highest dose often 57.5 µM), for inactives: at the top dose activity change, negative = active | 1.9% of 340,000 active | AID 651965, 2013; active = well fitted falling curve with a large enough effect; inconclusive = small, poorly fitted or top-dose-only effect; inactive = no such curve, though single readings can be large or run the other way; also: potency is read from the fitted curve at half-maximal effect; the source files actives as falling curves though it sought activators and does not explain the sign; nearly all actives have a fitted effect of over 65% in size; many hits overshoot -100%
Target sequence (P80244 whole entry, looked up): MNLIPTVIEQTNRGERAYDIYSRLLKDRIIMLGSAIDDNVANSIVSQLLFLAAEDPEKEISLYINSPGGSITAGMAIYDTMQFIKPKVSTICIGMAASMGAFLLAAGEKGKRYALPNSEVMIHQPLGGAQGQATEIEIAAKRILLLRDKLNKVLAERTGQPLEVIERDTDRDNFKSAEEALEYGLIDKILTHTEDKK
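FRET quenching reversal measured ClpP activation: 10 microg/mL B. subtilis ClpP at pH 8 with the FRET-FV decapeptide, read at 430 nm after 320 nm excitation. The 20-min minus 0-min signal was scaled between DMSO/no-enzyme wells and ADEP (5.8 microM final).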
TRPML1 ag: activates the human TRPML1 channel; TRPML1-expressing cells, Ca2+ dye fluorescence, FDSS; host cell line not named in the record; reference of the full effect not given here; activation, % (test concentration not listed); 0.12% of 410,000 active; in the data active = activation above about 50%; inconclusive = about 30% to 50%; inactive = below about 30%; also: 0% is about no effect; the text of the record puts the active cut at 80%
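Calcium fluorescence on an FDSS kinetic reader gave the read-out. Tet-induced TRPML1-DL cells were plated overnight, dye-loaded (Ca8 with quencher, 45-90 min, room temperature, dark), then read 110 s after compound addition, and again 110 s after 4uM final 54-4 (EC80).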
Menin MLL FP FL: menin-MLL binding inhibition, fluorescein peptide; Fluorescence polarization, fluorescein-MLL peptide displacement from menin; FP activity change, % at 61.4 µM; 290,000 tested, under 10 active; AID 1766; inconclusive = falling polarisation curve, or a change in total fluorescence; inactive = total fluorescence flat and polarisation flat or rising; no compound was filed as active; the % refers to the polarisation; negative = inhibition;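 also: % of control where 0% means no effect; inhibitors lower the polarisation; unlabelled MLL peptide was the positive control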
gsp antagonist: gsp mutant antagonism; 0.4% of 340,000 active; gsp-mutant cells, cAMP HTRF, 30 min; control for the full effect not named in the record; Potency, µM (titrated, usually from 76.9 µM), inactives show at the top dose activity change, negative = inhibition, hits mostly inhibitors; active = falling curve of any shape with a large fitted effect; inconclusive = falling curve, mostly with a smaller effect; inactive = flat or rising curve; cell line not stated here;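 also: intracellular cAMP measured with PDE inhibitor Ro 20-1724 present during compound exposure; potency is read from the fitted curve at half-maximal effect; % is scaled to controls: 0 for no effect and ±100 for the full control effect; nearly all actives have a fitted effect of over 65% in size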
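Cells, 2000/well, grown 16–24 h in DMEM 10% FBS with 0.5 mg/ml G418, then compounds plus […] (300 uM addition stock), 30 min at 37C. cAMP read by HTRF (cAMP-d2 and anti-cAMP antibody-K in lysis buffer) after 30 min RT.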
gsp ag: agonists of gsp mutant (McCune-Albright syndrome). Potency, µM (highest dose often 76.9 µM), inactives show at the top dose activation (cAMP increase), most hits filed as activators. AID 624287. 0.13% of 340,000 active. gsp mutant cells, cAMP HTRF, 30 min; control for the full effect not named in the record; active = well fitted activation curve with a large enough effect; inconclusive = small, poorly fitted or top-dose-only effect, or another doubt; inactive = no such curve, though single readings can be large or run the other way; cell line not stated here;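 also: phosphodiesterase inhibitor Ro 20-1724 added with compounds to block cAMP breakdown; potency is read from the fitted curve at half-maximal effect; nearly all actives have a fitted effect of over 60% in size; about a fifth of the inactives were tested at one dose only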
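Cells in DMEM/10% FBS with G418 were pretreated with compounds in DMSO plus […] (300 uM stock) for 30 min at 37C. cAMP was measured by HTRF (cAMP-d2 plus anti-cAMP antibody-K) after 30 min at room temperature.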
Numbers without * were called inactive; ? = inconclusive; nt = not tested or not shown; [ ] = remark or other dose. Random draw from the library (roughly 2.1% active in at least one column).

SMILES | TRPML1 inh | ClpP mod | TRPML1 ag | Menin MLL FP FL | gsp antagonist | gsp ag
CC(C)Cn1cc(C(=O)N2CCC(C)CC2)c2c3ccccc3n(C)c2c1=O | -4 | nt | 1.6 | -0.3 | 5% | 27%
COC(=O)Cn1c(=O)c(C(=O)CCl)c(N)n(Cc2ccccc2)c1=O | 0 | 1.2% | -0.8 | 2.1 | 1% | 5%
O=C(c1cc2c(=O)oc3ccccc3c2s1)N1CCN(c2ccccc2)CC1 | 3 | 0.7% | -0.1 | nt | nt | nt
CCOC(=O)c1cc(CC)sc1NC(=O)CCC(=O)O | -2 | -2.4% | 0.4 | -0.9 | -9% | 21%
CC1CN(CCOc2ccc(Cl)cc2Cl)CC(C)O1 (centres undefined) | 10 | 0.9% | -0.5 | 2.0 | 11% | -1%
Cc1cc(C(=O)N2CCC(C)CC2)on1 | -11 | -3.1% | 0.3 | 1.1 | 10% | ?
CC(C)c1ccc(N(CC(=O)O)S(=O)(=O)c2ccc3[nH]c(=O)c(=O)[nH]c3c2)cc1 | -12 | -13% | 1.4 | nt | nt | nt
CC(OC(=O)C1CC1)C(=O)Nc1ccc([N+](=O)[O-])cc1Cl (centres undefined) | 6 | nt | -0.1 | 1.5 | -13% | 4%[15.4 µM]
N/C(=N\OC(=O)c1cccc(Br)c1)c1ccccc1 | 17 | -0.8% | -0.2 | -0.9 | 9% | 1%
O=C(NCc1ccc(Cl)cc1)c1cc(=O)[nH]c2ccccc12 | -9 | nt | -0.7 | -16 | -19% | ?
Cc1ccc(OCC(=O)NCC(c2ccc(Cl)cc2)N2CCOCC2)cc1C (centres undefined) | 5 | 1.2% | -0.7 | nt | nt | nt
COc1ccc(N2C(=O)CC(N3CCN(c4ccc(S(=O)(=O)N5CCCC5)cc4)CC3)C2=O)cc1 (centres undefined) | 2 | -2.4% | 1.0 | 0.7 | -4%[15.4 µM] | ?
CCOC(=O)C1=C(C)NC2=C(C(=O)CCC2)C1c1cccs1 (centres undefined) | -18 | ? | 2.0 | 1.9 | 1% | 12%
CCc1ccc(C(=O)COC(=O)C(Cc2c[nH]c3ccccc23)NC(=O)c2ccc(CC)cc2)cc1 (centres undefined) | -12 | -5.0% | 2.0 | nt | nt | nt
c1ccc(-c2nc3nc4ccccc4nc3n2CC2CCCO2)cc1 (centres undefined) | -7 | nt | 5.7 | 3.0 | ? | ?
O=C(NCc1ccncc1)C1CCN(S(=O)(=O)c2cccc(C(F)(F)F)c2)CC1 | -10 | nt | 0.5 | 5.4 | 6% | 10%[15.4 µM]
COc1cc(-n2c(=O)c3ccccc3n(Cc3cccc(C)c3)c2=O)cc(OC)c1OC | nt | 0.3% | nt | -0.5 | 1% | ?
O=C(COC(=O)COc1ccc(Br)cc1)NC1CCCC1 | -15 | -1.4% | 2.6 | nt | -9% | -31%[inhibitor]
Cc1cccc(N2C(=O)CC(SC(N)=Nc3ccccc3)C2=O)c1 (centres undefined) | -19 | 1.4% | 0.9 | -1.7 | -6% | -32%[inhibitor]
COc1cccc(NC(=O)CCC2CCN(C(=O)c3cncs3)CC2)c1 | -10 | -1.1% | -0.2 | nt | -5% | 4%[15.4 µM]
COc1ccc(CN=Cc2c(C(F)(F)F)[nH][nH]c2=O)cc1 | 4 | 2.0% | 4.4 | 2.8 | 7% | -40%[inhibitor]
Clc1ccc(CSc2nnc3ccccn23)c(Cl)c1 | -1 | -3.1% | -0.6 | -3.3 | -5% | 0%
FC(F)(F)c1cccc(Cc2noc(CN3CCCC(CN4CCCC4)C3)n2)c1 (centres undefined) | 14 | nt | 0.4 | ? | 10% | -7%
O=C(Cc1ccccc1)Nc1nc(-c2ccc(F)c(F)c2)cs1 | -4 | nt | 0.0 | nt | -3% | -10%[15.4 µM]
CCc1cccc(CC)c1NC(=O)c1ccc(-c2cc(Cl)ccc2Cl)o1 | 17 | ? | 1.1 | nt | nt | nt
Clc1ccc(-c2cc3ncc4c(n3n2)-c2ccccc2OC4)cc1 | -7 | 1.0% | -0.1 | nt | nt | nt
COc1cnn(-c2ccc(F)cc2)c(=O)c1Br | 2 | nt | 0.2 | 1.2 | 2% | 16%
CCc1ccccc1N(CC(=O)NCc1ccccc1)C(=O)CCC(=O)Nc1ccccn1 | 2 | nt | -0.5 | -0.2 | -8% | -48%[15.4 µM]
CCOC(=O)c1c(C)n(S(=O)(=O)c2ccc(C)cc2C)c2ccc(NS(=O)(=O)c3ccc(C)cc3C)cc12 | -13 | -1.5% | -0.6 | nt | nt | nt
O=C(Nc1ccc(S(=O)(=O)Nc2ncccn2)cc1)c1cccnc1 | -13 | 0.7% | -0.4 | 6.3 | -7% | 4%
CCOC(=O)c1[nH]c(C)c(CCC(=O)Nc2ccc(C)cc2Cl)c1C | 5 | 2.3% | -0.7 | nt | nt | nt
Cn1c(N2CCN(c3ccccn3)CC2)nc2c1c(=O)n(Cc1ccccc1Cl)c(=O)n2C | 4 | -0.2% | -1.0 | nt | 7% | 9%
CCCCOc1ccc(N(CC(=O)NC(C)(C)CC)C(=O)CCC(=O)Nc2ccccn2)cc1 | 12 | -0.7% | -0.6 | -4.7 | -5% | 2%[15.4 µM]
CC(C)(C)C1N=C(c2ccc3ccccc3c2)OC1=O (centres undefined) | -19 | -20% | -0.4 | nt | 1% | 1%
CC12CCC3C(CCC4N(CCO)CCC34C)C1CCC2O (centres undefined) | -8 | -19% | 0.7 | -6.6 | 18% | -5%
O=C(O)c1cc(Cl)ccc1OS(=O)(=O)c1ccc(Cl)s1 | 20 | -3.0% | 0.2 | nt | -11% | 21%[15.4 µM]
COc1ccccc1C(=O)Nc1cc2c(cc1N1CCCC1)n(C)c(=O)c(=O)n2C | 20 | ? | 2.0 | nt | nt | nt
COc1ccc(Cl)cc1NC(=O)CN(C)C(=O)c1sc2ccccc2c1Cl | 30 | -2.7% | 5.2 | nt | ? | 8%
Cc1ccc(N2CS(=O)(=O)/C(=C/N(C)C)C2=O)cc1 | -5 | -2.0% | 0.3 | -4.0 | -7% | -33%
C[C@]12C(=O)N(c3cccc(F)c3)C(=O)N1[C@H]1c3ccccc3OC[C@@H]1[C@H]2c1ccccc1 | -15 | -1.8% | -0.7 | nt | -10% | -4%
COCc1cc(C)nc(OCC(=O)N/N=C/c2cc(C)n(-c3c(C)cccc3C)c2C)c1C#N | -9 | 11% | 1.2 | 2.6 | -5% | 1%
O=C1c2ccccc2S(=O)(=O)c2cc(C(=O)N3CCN(C(=O)c4ccccc4)CC3)ccc21 | -23 | -4.2% | 0.1 | nt | -1% | -26%
C/C(CC(=O)NCc1ccco1)=N\NC(=O)COc1ccc(C)cc1 | 5 | 1.6% | 0.0 | 0.1 | 2% | 6%
COc1ccc(-c2nn(-c3ccccc3)cc2C(=O)N2CCN(C(=O)c3ccco3)CC2)cc1 | 20 | nt | 0.4 | nt | -4% | -4%
O=C(O)CC1(CC(=O)Nc2cc3ccccc3cn2)CCCCC1 | 2 | nt | -0.5 | -1.5 | -10% | -7%[15.4 µM]

3 entries from above, set out differently:
Structure: Cc1ccc(N2CS(=O)(=O)/C(=C/N(C)C)C2=O)cc1
  TRPML1 inh: -5
  ClpP mod: -2.0%
  TRPML1 ag: 0.3
  Menin MLL FP FL: -4.0
  gsp antagonist: -7%
  gsp ag: -33%
Structure: C[C@]12C(=O)N(c3cccc(F)c3)C(=O)N1[C@H]1c3ccccc3OC[C@@H]1[C@H]2c1ccccc1
  TRPML1 inh: -15
  ClpP mod: -1.8%
  TRPML1 ag: -0.7
  Menin MLL FP FL: nt
  gsp antagonist: -10%
  gsp ag: -4%
Structure: COCc1cc(C)nc(OCC(=O)N/N=C/c2cc(C)n(-c3c(C)cccc3C)c2C)c1C#N
  TRPML1 inh: -9
  ClpP mod: 11%
  TRPML1 ag: 1.2
  Menin MLL FP FL: 2.6
  gsp antagonist: -5%
  gsp ag: 1%

Remaining list, next part.
SMILES | TRPML1 inh | ClpP mod | TRPML1 ag | Menin MLL FP FL | gsp antagonist | gsp ag
CCc1cccc(CC)c1N(COC)C(=O)Cn1ccccc1=N | 15 | ? | 0.0 | -1.2 | 6% | 0%
CCOC(=O)N1CCC(N2CC34C=CC(O3)C(C(=O)O)C4C2=O)CC1 (centres undefined) | -6 | 0.3% | 1.7 | 5.4 | 16% | 25%
CC(C)OC(=O)c1cc(C(=O)c2cc(F)ccc2O)coc1=N | 5 | -12% | 0.2 | 6.0 | -19% | -10%
COC(=O)C(C)Sc1nnc2n(-c3cccc(C)c3)c(=O)c3c4c(sc3n12)CCCC4 (centres undefined) | 4 | -2.0% | 0.1 | -10 | -7% | -46%[inhibitor]
CCOC(=O)C1CCN(C(=O)C2COc3ccccc3O2)CC1 (centres undefined) | -1 | nt | -0.4 | 2.6 | 0% | ?
CCC(C)NC(=O)CCC(=O)Nc1ccc2nc(N3CC(C)CC(C)C3)cc(C)c2c1 (centres undefined) | 18 | nt | -0.2 | -3.5 | -5% | 11%
COc1cc2c(cc1OC)n(CC(=O)c1ccc(C)cc1)c(=O)n1nc(CCn3nc(C)cc3C)nc21 | -11 | -0.1% | 0.7 | nt | nt | nt
CCC(C)c1ccccc1N1CC(C(=O)NCCc2ccc(OC)c(OC)c2)CC1=O (centres undefined) | -7 | nt | -0.4 | nt | -3% | -5%[15.4 µM]
COc1cccc(CNC(=O)CCc2cn(Cc3ccccc3Cl)c3ccccc23)c1 | -10 | -15% | 4.6 | nt | nt | nt
COc1ccc(C(C[N+](=O)[O-])c2c(-c3ccccc3)cc3ccccn23)cc1OC (centres undefined) | 6 | 52% | 0.4 | 3.4 | 6% | -5%
CN(C1CCCCC1)S(=O)(=O)c1cn(C)c(=O)n(C)c1=O | -4 | -2.0% | 0.0 | nt | 5% | -13%
O=C(CN1CCN(c2ccccc2O)CC1)Nc1cc([N+](=O)[O-])ccc1Cl | 17 | -1.5% | 0.0 | 3.6 | 4% | 0%
CCc1c(C)nc2ncnn2c1NCc1cccs1 | 13 | 1.0% | 0.2 | 1.0 | -25% | -8%
Cc1ccc(S(=O)(=O)c2nc(S(=O)(=O)c3ccccc3)sc2N2CCN(C)CC2)cc1 | -3 | 0.0% | -0.4 | 3.7 | -13% | ?
Cc1ccc(-c2ccc(CCC(=O)O)n2NC(=O)c2ccco2)cc1 | -4 | -1.4% | -0.7 | -5.6 | -8% | 20%
CCOC(=O)Cn1c(=O)c2c(nc(Br)n2Cc2ccc(Cl)cc2)n(C)c1=O | 11 | 1.6% | -1.2 | -2.2 | 21% | 4%
Cc1cccc(N2CCN(CCCNc3ncnc4onc(-c5ccc(Cl)cc5)c34)CC2C)c1 (centres undefined) | 25 | -0.8% | 1.5 | nt | nt | nt
C[C@@H]1CN([C@H](C)CO)C(=O)c2cccc(NS(=O)(=O)c3cccs3)c2O[C@H]1CN(C)Cc1ccccc1 | 8 | -3.0% | -0.6 | nt | -1% | nt
